# GLA inh pH 4.5: alpha-galactosidase A (human) inhibition, pH 4.5. AID 1467. activity change, negative = inhibition, % at 105 µM. 230,000 tested, under 10 active. purified enzyme, 4-MU-alpha-Gal fluorescence, pH 4.5; inconclusive = small, poorly fitted or top-dose-only inhibition, or a rising curve; inactive = flat fitted curve, though single readings scatter; no compound was filed as active;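 also: 0% = full activity with enzyme and -100% = basal without enzyme; dose as in the result columns while the protocol names 77 µM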
# Rango dissoc inh: inhibitors of RanGTP-induced Rango-importin beta complex dissociation; O95149+P62826; Biochemical FRET Rango-importin beta, RanGTP-induced dissociation; Potency, µM (titrated, usually from 46.1 µM), inactives show top-dose activity change, negative = inhibition; actives 0.071% (n = 340,000); active means falling FRET ratio curve, often poorly fitted, with flat reads before Ran was added; inconclusive means other falling curves, or compound fluorescence or quenching; inactive means flat or rising ratio curve;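 also: potency is read from the fitted curve at half-maximal effect; % of control where 0% means no effect; nearly all actives have a fitted effect of over 45% in size; -100% = wells without RanGTP and RCC1; the record marks most hits as doubtful in a second field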
#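 Rango FRET biosensor (snurportin-1 IBB flanked by N-terminal EYFP and C-terminal CFP10) at 0.1 uM, with 0.25 uM importin beta in PBS, 1mM DTT, 0.02% Tween-20, 0.1% BSA. 0.6 uM Ran, 2mM GTP and 0.2 uM RCC1 were then added for 45 min at room temperature. Inhibition read as loss of FRET rise.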
# miR-21 reporter: miR-21 reporter, rising signal | 340,000 tested, under 10 active | HeLa miR-21 FLuc reporter, luciferase, 48 h | AID 2288 | Potency, µM (top dose mostly 38.3 µM), for inactives: at the top dose reporter change, positive = more light; active = well fitted rising curve with a large enough effect; inconclusive = small, poorly fitted or top-dose-only effect; inactive = no such curve, though single readings can be large or run the other way;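 also: % of control where 0% means no effect; miR-21 action dims this reporter so a rising signal means less miR-21 action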
#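 HeLa cells endogenously expressing miR-21, stably carrying CMV-driven firefly luciferase with a downstream miR-21 binding site, 2000 cells/well. Titrations up to approximately 40 uM, 48 hours; luciferase luminescence read.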
# Rango-impB inh: inhibitors of Rango-importin beta complex formation | Q14974 | Rango CFP/YFP FRET sensor + importin beta, 45 min | Potency, µM (series often up to 92.2 µM), inactives show top-dose inhibition of complex formation | actives 0.031% (n = 340,000) | AID 540263; active = rising FRET ratio curve, often small or poorly fitted; inconclusive = mostly compound fluorescence or quenching in the first reads; inactive = flat curves in all reads;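 also: potency is read from the fitted curve at half-maximal effect; 0% = DMSO wells and 100% = buffer wells lacking importin beta; nearly all actives have a fitted effect of over 15% in size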
# Target sequence (Q14974 whole entry, looked up): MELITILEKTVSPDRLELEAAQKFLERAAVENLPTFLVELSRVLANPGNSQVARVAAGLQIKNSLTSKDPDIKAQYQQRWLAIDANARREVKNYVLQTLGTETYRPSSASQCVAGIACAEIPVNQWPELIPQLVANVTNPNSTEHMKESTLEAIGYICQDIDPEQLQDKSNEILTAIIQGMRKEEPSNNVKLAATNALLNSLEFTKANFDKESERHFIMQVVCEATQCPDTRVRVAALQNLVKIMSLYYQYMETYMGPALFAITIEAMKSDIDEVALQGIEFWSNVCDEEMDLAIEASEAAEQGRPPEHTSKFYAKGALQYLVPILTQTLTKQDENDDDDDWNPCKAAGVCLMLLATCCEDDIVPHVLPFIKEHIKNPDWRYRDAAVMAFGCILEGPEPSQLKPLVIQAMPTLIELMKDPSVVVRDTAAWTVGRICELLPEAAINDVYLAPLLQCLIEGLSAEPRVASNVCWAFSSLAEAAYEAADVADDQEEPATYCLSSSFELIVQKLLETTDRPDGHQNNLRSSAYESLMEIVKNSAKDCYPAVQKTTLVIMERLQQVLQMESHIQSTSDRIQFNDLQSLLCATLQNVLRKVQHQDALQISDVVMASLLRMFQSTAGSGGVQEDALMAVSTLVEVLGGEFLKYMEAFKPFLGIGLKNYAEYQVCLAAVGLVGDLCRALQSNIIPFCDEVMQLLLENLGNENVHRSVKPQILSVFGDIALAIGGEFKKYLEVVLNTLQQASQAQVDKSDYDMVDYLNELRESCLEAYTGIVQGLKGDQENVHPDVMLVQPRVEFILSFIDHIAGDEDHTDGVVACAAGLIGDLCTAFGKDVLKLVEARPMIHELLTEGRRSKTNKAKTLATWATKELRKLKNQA
#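 FRET biosensor (snurportin 1 IBB flanked by EYFP and cerulean), 50 nM, with compound 5 min, then 0.125 microM importin beta in PBS, 1 mM DTT, 0.02% Tween-20, 0.1% BSA. CFP/YFP ratio read after 45 min at room temperature; pre-read flags interference.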
# * marks the source's active call; other numbers are inactive results; ? = inconclusive; . = no result given; & = joins results of further samples. An excerpt; rates above refer to the full screens.
SMILES,GLA inh pH 4.5,Rango dissoc inh,miR-21 reporter,Rango-impB inh
Cc1ccc(CC2(OCCN(C)C)CCC(C(C)(C)C)CC2)cc1 (configuration not stated),.,10%,.,-3.2%
COC(=O)COc1cccc(NC(=O)COc2ccccc2)c1,-10,-8%,0%,5.0%
Cc1nn(C)cc1/C=C/C(=O)c1ccccc1,-3,?,-20%,5.3%
COc1ccccc1C(=O)OCCc1ccccc1,.,6%,.,4.1%
Cc1nc2c([nH]c3ccc(Br)cc32)s1,-2,-8%,-23%,0.1%
C/C(=N\NC(=O)c1ccc(O)cc1)c1ccc2c(c1)Nc1ccccc1S2,-7,?,-20%,?
O=C(CCCN1C(=O)c2ccccc2C1=O)NCc1ccco1,-6,-4%,1%,-2.0%
Cc1ccccc1-n1nc2c(c1NC(=O)c1cc3ccccc3oc1=O)CS(=O)C2 (configuration not stated),4,0%,-3%,-1.4%
O=C(/C=C/c1cccs1)c1cc(F)ccc1OC(=O)N1CCOCC1,.,13%,.,1.6%
COc1ccc(N2CCc3c(C)nc4c(OC)cc(OC)cc4c32)c(OC)c1,-3,0%,26%,1.4%
CCOC(=O)C1CCCCN1Cc1cccc(C(F)(F)F)c1 (configuration not stated),0,-5%,1%,1.1%
COc1cc2c(cc1NC(=O)COCC(=O)O)oc1ccccc12,.,11%,4%,2.0%
CCOc1ccc(-c2noc(CCCC(=O)NC3CCCC3)n2)cc1OC,.,11%,0%,2.9%
O=C(CN1C(=O)NC2(CCCC2)C1=O)Nc1ccc(Cl)cc1F,.,23%,2%,0.7%
CC(=O)NC(C)C(=O)OCC(=O)c1ccc(-c2ccccc2)cc1 (configuration not stated),2,-2%,-15%,-5.0%
COc1ccc(CNC(=O)C(OC(=O)c2nsc(Cl)c2Cl)C(C)C)cc1 (configuration not stated),7,?,0%,-0.2%
COCCNC(=O)c1cccc(OC2CCN(Cc3ccc(OC(F)F)cc3)CC2)c1,.,29%,25%,0.6%
CCO[C@H]1OC(C(=O)N2CCN(C)CC2)=C[C@@H](c2coc3ccccc3c2=O)[C@@H]1CCCO,-2,13%,2%,5.2%
CN1C(=O)/C(=C\c2ccc(N(C)C)cc2)OC1=S,.,?,-11%,?
Cc1cccc(-c2csc(N)c2C(=O)OC(C)C)c1,-4,?,-10%,-0.9%
Cc1ccc(-c2cc(Cc3ccncc3)c(=O)[nH]n2)cc1,4,0%,-17%,4.7%
Cc1csc(NC(=O)c2c(O)c3c(n(CC(C)C)c2=O)CCCC3)n1,-3,-3%,-7%,0.2%
COc1ccc(CN2C(=O)CN(C3CCCCCC3)C(=O)C2c2ccc(OC)c(OC)c2)cc1 (configuration not stated),8,-10%,-2%,-1.6%
Cc1ccccc1-n1nc(C)c2cc(C(=O)NC3CC3)sc21,-9,11%,-21%,-5.4%
CCOC(=O)Nc1ccc2nc3n(c(=O)c2c1)CCCCC3,-5,4%,-45%,-1.5%
Cc1nn(-c2ccccc2)c(N2CCCC2)c1/C=N/NC(=O)c1cc(-c2ccccn2)nc2ccccc12,-3,-16%,26%,0.0%
C=CCN1C(=O)CS/C1=N\N=C\c1cccc([N+](=O)[O-])c1,1,1%,-7%,0.7%
Cc1ccc(OCC(O)CN2CCN(CC(O)COc3ccc(C)cc3Cl)CC2)c(Cl)c1 (configuration not stated),4,?,0%,?
Nc1nonc1C(=O)N1CCCC1,8,7%,-1%,-2.1%
COc1ccccc1CCNC(=O)NC1CCCCC1,-1,-7%,-40%,-5.3%

# In a second layout: five of the compounds above
Structure	GLA inh pH 4.5	Rango dissoc inh	miR-21 reporter	Rango-impB inh
CCOC(=O)Nc1ccc2nc3n(c(=O)c2c1)CCCCC3	-5	4%	-45%	-1.5%
Cc1nn(-c2ccccc2)c(N2CCCC2)c1/C=N/NC(=O)c1cc(-c2ccccn2)nc2ccccc12	-3	-16%	26%	0.0%
C=CCN1C(=O)CS/C1=N\N=C\c1cccc([N+](=O)[O-])c1	1	1%	-7%	0.7%
Cc1ccc(OCC(O)CN2CCN(CC(O)COc3ccc(C)cc3Cl)CC2)c(Cl)c1 (configuration not stated)	4	?	0%	?
Nc1nonc1C(=O)N1CCCC1	8	7%	-1%	-2.1%

# Next records
SMILES,GLA inh pH 4.5,Rango dissoc inh,miR-21 reporter,Rango-impB inh
COc1ccc(NC(=O)CCCN2C(=O)C(c3ccccc3)Oc3cccnc32)c(OC)c1 (configuration not stated),.,-24%,-5%&2%,-0.6%
COC(=O)c1c(C)[nH]c(C(=O)CSc2ccc(Cl)cc2)c1C,7,11%,-55%,-0.8%
CC(C)(C)N1CCC1C(N)=O (configuration not stated),20,.,3%,.
Cn1nnnc1Sc1ncnc2scc(-c3ccccc3Br)c12,.,0%,.,-3.6%
Cc1ccccc1N=Nc1ccc(O)c2ncccc12,-8,-4%,?,-1.2%
CN(C(=O)COC(=O)c1ccc(NS(=O)(=O)c2cccs2)cc1)C1CCCCC1,1,-3%,-7%,-0.8%
Cc1csc(NC(=O)CSc2nnc(-c3cccs3)n2C)n1,5,1%,-9%,2.0%
CCn1cc(C(=O)N2CCN(c3cccc(C)c3C)CC2)c(=O)c2ccc(C)nc21,-11,-10%,4%,-0.4%
COC(=O)C1=CN(Cc2ccc(OC)c(OC)c2)C=C(C(=O)OC)C1c1cccs1,12,-15%,-5%,?
CN(CCOc1ccc(Cl)cc1)C(=O)C1CCN(C(=O)c2ccc(F)cc2)CC1,.,15%,12%,-1.9%
OC1(c2cccc(C(F)(F)F)c2)CCN(CCN2CCCCC2)CC1,.,2%,4%,-2.3%
O=C(CSc1nnc(CNC(=O)c2ccccc2F)o1)NCc1ccco1,.,5%,0%,-2.8%
O=C(OCC1CC(c2ccccc2)=NO1)c1ccco1 (configuration not stated),0,8%,-2%,3.8%
C/C(CC(=O)Nc1ccc(C)c(Cl)c1)=N\NC(=O)c1cccc(O)c1,.,0%,-22%,-0.6%
Cc1nc2ccccc2c(=O)n1Cc1ccco1,-5,2%,?,-0.7%
O=C1COc2ccccc2N1Cc1ccc(Cl)cc1,.,10%,-8%,2.7%
COc1ccc(OC)c(/C=C/C(=O)Nc2ccc(OC)nc2)c1,0,-6%,-4%,4.4%
COc1ccc(/C=C/C(=O)OCC(=O)NC2CC2)c(OC)c1,.,9%,.,2.9%
CCCOc1ccc(C2Nc3cccc4cccc(c34)N2)cc1,.,-13%,-6%,?
Cc1ccc(C)c(NS(=O)(=O)c2cc(C(=O)NCc3ccncc3)ccc2C)c1,.,9%,4%,-1.2%
COc1ccc(C(=O)Oc2cc(OC)cc(OC)c2C(C)=O)cc1,0,12%,-3%,-2.6%
Cc1ccc(NC(=O)CS(=O)(=O)c2cn(CC(=O)N3CCOCC3)c3ccccc23)cc1,2,2%,-16%,-3.1%
C#CCOc1ccccc1/C=C1/C(=O)ON=C1C,.,-8%,-3%,-2.2%
O=C(NCCc1c[nH]c2ccccc12)C(=O)c1c[nH]c2ccccc12,.,-8%,5%,4.2%
Cc1ccc(-n2c(=O)cc(N3CCc4ccccc4C3)[nH]c2=O)cc1,-5,-10%,-15%,-1.4%
CCOc1ccc(N(CC(=O)Nc2nccs2)S(=O)(=O)c2c(C)[nH]c(=O)[nH]c2=O)cc1,-3,-11%,-2%,0.2%
CSCc1ccc(C(=O)NCc2ccc(F)cc2)cc1,-10,0%,-26%,0.6%
Cc1ccc(S(=O)(=O)Nc2nc3c(s2)C(=O)CC(C)(C)C3)cc1,0,26%,0%,?
O=C(Nc1nc2ccccc2s1)C1CCCO1 (configuration not stated),1,13%,-35%,0.1%
CC(C)C(NC(=O)c1cccs1)C(=O)NC1=NCCS1 (configuration not stated),-4,-10%,-8%,?
Cc1cc(=O)oc2cc(OCC(=O)NC3CCN(Cc4ccccc4)CC3)ccc12,.,?,1%,0.8%
COc1ccc(C2C(=O)c3ccccc3C2=O)c(OC)c1,3,-3%,-5%,1.8%
O=C(CSc1nnc2ccccn12)Nc1nsc(-c2ccccc2)n1,0,9%,-15%,0.6%
O=C(COc1ccc(Br)cc1)NC1CC1,.,-3%,-13%,-4.1%
CC1(C)Cc2cccc(OCC(=O)NC3CC3)c2O1,3,0%,-4%,1.1%
Cn1ccnc1C1CCCCN1Cc1nc(Cc2ccccc2F)no1 (configuration not stated),8,4%,1%,-2.9%
CC1CCCC(NC(=S)Nc2cccc(S(=O)(=O)N(C)C)c2)C1C (configuration not stated),-5,13%,14%,-4.0%
O=S(=O)(Cc1ccccc1)N=Nc1c(O)[nH]c2ccc(Br)cc12,-3,6%,8%,-2.3%
Cn1c(/C=C/c2cccc([N+](=O)[O-])c2)c([N+](=O)[O-])c(=O)n(C)c1=O,.,-3%,?,3.1%
O=C(NCc1ccccn1)c1ccc(N2CCCC2)c([N+](=O)[O-])c1,2,20%,-16%,5.0%
COC(=O)c1cn(-c2ccccc2)nc1-c1ccc(OC)c(OC)c1,.,-12%,-22%,-1.7%
CCCCc1cc(=O)oc2cc(C)cc(OCC(=O)O)c12,1,-5%,-6%,-0.3%
Cc1nn(-c2ccccc2)c(Cl)c1/C=C(\CC(=O)O)c1nc2ccccc2s1,0,-2%,-7%,-0.9%
COc1ccc2[nH]c3c(c2c1)CCN1C(=O)C(CC(=O)NCCC2=CCCCC2)C[C@H](C(=O)N2CCOCC2)[C@@]31C (some centres not stated),.,19%,.,3.8%
NC(N)=NS(=O)(=O)c1ccc(NC(=S)NC(=O)c2sc3ccccc3c2Cl)cc1,3,21µM*,0%,?

# In a second layout: two of the compounds above.
# Second line of a record: GLA inh pH 4.5 | Rango dissoc inh | miR-21 reporter | Rango-impB inh
- Cn1c(/C=C/c2cccc([N+](=O)[O-])c2)c([N+](=O)[O-])c(=O)n(C)c1=O
    . | -3% | ? | 3.1%
- O=C(NCc1ccccn1)c1ccc(N2CCCC2)c([N+](=O)[O-])c1
    2 | 20% | -16% | 5.0%

# (further entries)
SMILES,GLA inh pH 4.5,Rango dissoc inh,miR-21 reporter,Rango-impB inh
COc1ccc(N2CCN(CCCNC(=O)C3CCCN(S(=O)(=O)c4c(C)n[nH]c4C)C3)CC2)cc1 (configuration not stated),-3,-16%,0%,-2.3%
NC(=O)C1CCN(C(=O)C2CC(=O)N(c3ccc4c(c3)OCCO4)C2)CC1 (configuration not stated),.,-9%,.,0.4%
CC1N(O)C(c2ccc(Cl)cc2Cl)N(O)C1(C)C (configuration not stated),.,-4%,-23%,-4.3%
COc1ccc(-c2nn(-c3ccccc3C)cc2CNC(C)Cn2cncn2)cc1F (configuration not stated),3,1%,-15%,6.1%
COC(=O)c1c(NC(=O)CSc2nnc(-c3ccco3)n2C)sc(C)c1C,-3,-2%,-2%,-1.0%
COc1ccc(C)cc1NC(=O)CN1C(=O)C(=O)N(C2CCCC2)C1=O,.,11%,.,-1.0%
CCC1Oc2ccc(C)cc2N(CC(=O)NCCCN2CCOCC2)C1=O (configuration not stated),.,-5%,10%,-2.6%
O=C(NCc1cccnc1)Nc1cccc(Cl)c1,.,4%,-20%,0.9%
C=CCOc1cccc(CNc2cccc(C(=O)O)c2)c1,-16,-10%,-49%,2.2%
CC(C)=C1C2CCC1C1C(=O)N(c3nc(-c4ccccc4)c(C)s3)C(=O)C21 (configuration not stated),2,12%,5%,-1.0%
CN=CC1=C(O)c2ccccc2C1=O,7,-9%,-13%,-1.8%
C=C(C)CN1C(=O)C2(OCCO2)c2ccccc21,.,-1%,0%,-2.6%
CCCCNC(=S)N1CCn2cccc2C1c1ccccc1 (configuration not stated),-5,-1%,7%,1.1%

# Profiles as entered above. Values in the order: GLA inh pH 4.5, Rango dissoc inh, miR-21 reporter, Rango-impB inh
# CCC1Oc2ccc(C)cc2N(CC(=O)NCCCN2CCOCC2)C1=O (configuration not stated) as listed: ., -5%, 10%, -2.6%
# O=C(NCc1cccnc1)Nc1cccc(Cl)c1 as listed: ., 4%, -20%, 0.9%
# COc1ccc(-c2nn(-c3ccccc3C)cc2CNC(C)Cn2cncn2)cc1F (configuration not stated) as listed: 3, 1%, -15%, 6.1%
# CC1N(O)C(c2ccc(Cl)cc2Cl)N(O)C1(C)C (configuration not stated) as listed: ., -4%, -23%, -4.3%
# COc1ccc(C)cc1NC(=O)CN1C(=O)C(=O)N(C2CCCC2)C1=O as listed: ., 11%, ., -1.0%

# High-throughput results: PubChem BioAssay, National Center for Advancing Translational Sciences (NCATS)
